Screening data as filed in PubChem.
FGF22 binding: shifts melting point of recombinant human FGF22 | calls only at 9.99 µM | recombinant FGF22 thermal shift, SYPRO orange fluorescence; percent of sucrose octasulfate shift, DMSO zero | Q9HCT0 | 1.5% of 340,000 active;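 active means melting point raised past a set limit in the mean and every replicate; inconclusive means no clear call; three in four hits are not shown here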
ALR H2O2 inh: human ALR oxidase inhibition via reduced H2O2. P55789. inhibition, % (no concentration beside the values). 3.8% of 290,000 active. purified ALR, DTT oxidation, H2O2 HRP-luminol luminescence;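 active means mean and each replicate at 75% or more; inconclusive means only one of the two met; inactive means neither met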;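 further: stock transfer was 7.5 nL into about 7.5 µL; 0% = neutral wells and 100% = wells with inactivated enzyme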
HNF4A DNA FP: change in binding of human HNF4 alpha to DNA | 0.3% of 360,000 active | HNF4a-FITC DNA binding, fluorescence polarization, 1 h | P41235 | activity change, % at 10 µM | AID 1224865; in the data active means activity change above about 30%, passing the limit was not always enough;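 further: controls were the assay level and a saturating level of protein; the project sought stronger binding though the title names inhibitors; some compounds called inactive have numbers as strong as hits; positive values seem to mean higher polarization but the record does not say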
Target sequence (P41235 whole entry, looked up): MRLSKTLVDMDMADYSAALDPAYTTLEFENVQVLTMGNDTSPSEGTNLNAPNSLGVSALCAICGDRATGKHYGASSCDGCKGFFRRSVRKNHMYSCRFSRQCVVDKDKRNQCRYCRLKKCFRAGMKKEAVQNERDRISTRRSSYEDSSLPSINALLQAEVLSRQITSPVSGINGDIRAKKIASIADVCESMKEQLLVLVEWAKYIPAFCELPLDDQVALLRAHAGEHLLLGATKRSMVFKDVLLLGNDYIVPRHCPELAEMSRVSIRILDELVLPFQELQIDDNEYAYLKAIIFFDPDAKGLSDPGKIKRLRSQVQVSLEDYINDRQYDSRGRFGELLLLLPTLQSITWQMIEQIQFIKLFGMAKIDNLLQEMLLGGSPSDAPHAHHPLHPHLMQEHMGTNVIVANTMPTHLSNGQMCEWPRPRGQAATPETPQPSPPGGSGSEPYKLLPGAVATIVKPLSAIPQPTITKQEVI
Ecoli growth: blocks Escherichia coli growth; OD600, 23 h; active compounds read low; OD600 absorbance (test concentration not listed); 0.21% of 330,000 active; AID 1053175;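 active means OD600 absorbance below the run mean of sample wells minus 3.6 SD, in any replicate, cut at about 0.56 in these data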;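 further: stock transfer was 300 nL into about 60 µL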
rRNA inh HTS: inhibits bacterial ribosomal RNA function over humanized ribosomes; E. coli WT GFP vs humanized-ribosome RFP mutants, fluorescence, 24 h; active compounds read low; DMSO median 0, no signal -100; GFP signal change (wild-type ribosome), % (test concentration not listed); 1.6% of 350,000 active; AID 720706;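 active means significant combined selectivity score with lowered wild-type GFP, culture density cut under 30%, mutant RFP and density less affected; inactive means any of these conditions unmet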; further: one replicate is shown; some compounds called inactive have numbers as strong as hits
AF4-AF9 inh: MLL-AF4/AF9 protein interaction inhibition; P42568; inhibition, % at 10 µM; 0.47% of 350,000 active; AlphaScreen, biotin-AF4 peptide binding to FLAG-AF9;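 active means every replicate reaching a set inhibition limit, whatever the replicate mean, cut at about 25% in these data; inconclusive means mean inhibition reaches that limit but some replicates miss it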;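 further: 0% = plate neutral control median and 100% = total signal loss; the record names both 10 and 1 µM as test concentration; the first replicate is given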
Target sequence (P42568 whole entry, looked up): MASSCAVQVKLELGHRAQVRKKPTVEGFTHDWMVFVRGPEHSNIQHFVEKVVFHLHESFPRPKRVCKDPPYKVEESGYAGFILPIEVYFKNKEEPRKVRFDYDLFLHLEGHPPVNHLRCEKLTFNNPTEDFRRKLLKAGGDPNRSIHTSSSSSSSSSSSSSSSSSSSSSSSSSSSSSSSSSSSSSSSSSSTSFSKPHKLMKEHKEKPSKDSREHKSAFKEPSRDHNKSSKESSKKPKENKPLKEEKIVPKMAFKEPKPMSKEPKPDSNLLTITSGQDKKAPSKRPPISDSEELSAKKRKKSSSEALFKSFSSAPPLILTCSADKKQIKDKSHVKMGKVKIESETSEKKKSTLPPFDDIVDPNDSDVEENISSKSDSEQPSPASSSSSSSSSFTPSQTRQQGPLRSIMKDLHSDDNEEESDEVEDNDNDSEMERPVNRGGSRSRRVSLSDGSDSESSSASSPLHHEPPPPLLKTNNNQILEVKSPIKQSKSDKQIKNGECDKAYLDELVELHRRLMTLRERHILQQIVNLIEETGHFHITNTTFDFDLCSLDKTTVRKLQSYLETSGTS
Vif A3G: inhibitors of Vif binding to APOBEC3G peptide, primary screen, biochemical, TR-FRET, GST-Vif 1-94, biotin-A3G peptide, dose response retest (AID 1117319); 0.57% of 260,000 active; inhibition, %; hits with a dose series show IC50 in µM; TR-FRET GST-Vif / biotin-A3G peptide binding; higher % means a stronger effect; test concentration not given here; strong numbers were not always called active;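 active means above the screen mean plus three standard deviations and confirmed in dose response; inconclusive means results disagree or hit not tested in dose response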;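 further: Vif residues 1-94 fused to GST binding biotinylated APOBEC3G peptide 110-148; 0% = full assay without inhibitor and 100% = GST in place of GST-Vif; retest series ran down from 100 µM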
rRNA inh HTS OD600: further read-out of rRNA inh HTS, marked with its call; OD600 change, %; measured here: OD600 growth;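 optical density of the mix in the first replicate; 0 = DMSO median and -100 = no signal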
rRNA inh HTS RFP: further read-out of rRNA inh HTS, marked with its call; RFP signal change, %; measured here: RFP humanized mutant strains;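 first replicate; 0 = DMSO median and -100 = no signal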
An asterisk follows results filed as active; i = inactive; ? = inconclusive; / = no result given; & = joins results of further samples.

SMILES	FGF22 binding	ALR H2O2 inh	HNF4A DNA FP	Ecoli growth	rRNA inh HTS	rRNA inh HTS OD600	rRNA inh HTS RFP	AF4-AF9 inh	Vif A3G
CCOC1=C2[C@@H](CN(S(=O)(=O)c3ccc(C)cc3)[C@H]2c2ccccc2F)[C@H]2C(=O)NC(=O)[C@H]2C1	/	/	4.3	/	-4	-22	0.4	0.0	/
O=C(c1ccc2c(c1)OCO2)N1C[C@H]2[C@@H](c3ccccc31)[C@@H](CO)N2Cc1ccc2c(c1)OCO2	i	/	/	/	-9	-30	-1.8	2.2	/
O=C(CCc1ccc(S(=O)(=O)N2CCOCC2)cc1)OCC(=O)c1ccccc1	i	-5	4.9	0.69	-5	-3	-0.1	-3.8	-4%
COc1ccc(S(=O)(=O)N2CCCCC2)cc1NC(=O)COc1ccccc1	i	-5	-2.7	0.65	-12	-17	3.4	-1.0	2%
CCOc1ccc(C(=O)NC(C(=O)NCCc2ccc(OC(F)F)cc2)C(C)C)cc1 (centres undefined)	i	-1	-3.2	0.73	1	8	-2.1	1.1	/
Cc1cc(-c2ccccc2)nc(N(C)NC(=O)c2ccc(Cl)cc2)c1S(C)(=O)=O	/	-10	3.6	0.77	/	/	/	/	-1%
COc1cc(C(C)=O)ccc1OCC(=O)Nc1ccccc1N1CCCC1	i	53	-0.8	/	0	-6	0.2	6.2	/
C=CCNc1nc(Cl)nc(Nc2ccccc2)n1	i	-7	1.5	0.71	10	5	-1.3	4.6	/
Cn1c(CNC(=O)c2ccc3c(c2)OCO3)nnc1SCC(=O)Nc1ccccc1Cl	i	8	-4.3	0.69	1	-3	-1.4	-7.2	/
CCC(=O)Nc1ccc2c(c1)C(=O)N(C)[C@H]1CC[C@@H](CC(=O)NCC3CCCCC3)O[C@H]1CO2	i	/	/	/	0	2	-0.8	-2.8	/
CC1CCc2c(C(=O)Oc3cccc(-n4cnnn4)c3)csc2C1 (centres undefined)	/	-4	2.0	0.7	/	/	/	/	3%
COc1ccc(S(=O)(=O)Oc2cc(C(=S)N3CCOCC3)ccc2OC)cc1	i	/	1.2	0.75	-8	-6	-3.8	2.2	/
COc1ccc(NC(=O)Nc2ccc3c(c2)CC(=O)N([C@@H](C)CO)C[C@H](C)[C@H](CN(C)CC2CC2)O3)cc1	i	/	/	/	-5	3	-4.1	9.6	/
CS(=O)(=O)N1CCC(C(=O)NCc2ccc(Cl)cc2)CC1	i	0	2.5	0.69	6	14	-0.1	-23	1%
C[C@H]1CN([C@@H](C)CO)C(=O)c2cc(C#Cc3ccncc3)cnc2O[C@@H]1CN(C)C(=O)CN(C)C	i	/	/	/	1	6	0.4	-7.7	/
CCN1CCC(Nc2ccnc3cc(Cl)ccc23)CC1	i	-2	1.1	0.67	17	18	1.2	-3.8	10%
O=C(O)C1=NOC(CNC(=O)c2ccccc2Cl)C1 (centres undefined)	i	-6	-4.0	0.67	17	6	0.1	-1.0	5%
CCC(OC(C)=O)c1cc2c(cc1[N+](=O)[O-])OCCO2 (centres undefined)	i	-21	-3.7	0.65	4	-1	-1.0	0.3	/
C/C=C/c1ccc2c(c1)O[C@H](CN(C)C(=O)NCCC)[C@@H](C)CN([C@@H](C)CO)S2(=O)=O	i	/	/	/	3	17	-0.4	0.7	/
Brc1ccc(Nc2ncnc3[nH]ncc23)cc1	i	/	0.3	0.63	-20*	-9.3*	3.8*	1.5	23%
Cc1cc(NC(=O)CSc2nc3c(C)c(C)ccc3cc2C)no1	i	-8	-1.1	0.66	4	8	-2.3	0.1	-12%
COc1cc2ccccc2cc1C(=O)N1CCCC(C(F)(F)F)C1 (centres undefined)	i	-1	0.3	0.7	-4	-14	-1.8	-2.9	3%
Cc1ccc(CN2CC(N3CCC[C@@H]3C)CS2(=O)=O)cc1 (some centres undefined)	i	/	/	/	5	8	5.1	-0.7	/
COCCCNc1nc2ccccc2nc1NS(=O)(=O)c1ccccc1	i	9	-1.1	0.71	4	-1	-2.0	-0.8	23%
CCOc1ccc(C2NC(=O)NC(C)=C2C(=O)OCc2ccccc2)cc1 (centres undefined)	i	/	-0.6	0.66	6	5	-0.5	-1.9	/

Reformatted as comma-separated lines: 3 of the compounds above
canonical_smiles,FGF22 binding,ALR H2O2 inh,HNF4A DNA FP,Ecoli growth,rRNA inh HTS,rRNA inh HTS OD600,rRNA inh HTS RFP,AF4-AF9 inh,Vif A3G
Brc1ccc(Nc2ncnc3[nH]ncc23)cc1,i,/,0.3,0.63,-20*,-9.3*,3.8*,1.5,23%
Cc1cc(NC(=O)CSc2nc3c(C)c(C)ccc3cc2C)no1,i,-8,-1.1,0.66,4,8,-2.3,0.1,-12%
COc1cc2ccccc2cc1C(=O)N1CCCC(C(F)(F)F)C1 (centres undefined),i,-1,0.3,0.7,-4,-14,-1.8,-2.9,3%

In a second layout: results already given.
canonical_smiles | FGF22 binding | ALR H2O2 inh | HNF4A DNA FP | Ecoli growth | rRNA inh HTS | rRNA inh HTS OD600 | rRNA inh HTS RFP | AF4-AF9 inh | Vif A3G
O=C(O)C1=NOC(CNC(=O)c2ccccc2Cl)C1 (centres undefined) | i | -6 | -4.0 | 0.67 | 17 | 6 | 0.1 | -1.0 | 5%
CCC(OC(C)=O)c1cc2c(cc1[N+](=O)[O-])OCCO2 (centres undefined) | i | -21 | -3.7 | 0.65 | 4 | -1 | -1.0 | 0.3 | /
C/C=C/c1ccc2c(c1)O[C@H](CN(C)C(=O)NCCC)[C@@H](C)CN([C@@H](C)CO)S2(=O)=O | i | / | / | / | 3 | 17 | -0.4 | 0.7 | /
Brc1ccc(Nc2ncnc3[nH]ncc23)cc1 | i | / | 0.3 | 0.63 | -20* | -9.3* | 3.8* | 1.5 | 23%

(listing goes on)
SMILES	FGF22 binding	ALR H2O2 inh	HNF4A DNA FP	Ecoli growth	rRNA inh HTS	rRNA inh HTS OD600	rRNA inh HTS RFP	AF4-AF9 inh	Vif A3G
COc1cc(OC)c(OC)cc1C=NCC1(c2ccccc2)CCCC1	i	5	1.1	0.71	3	7	0.0	8.3	-2%
CC12CCCCC1N(O)C(=O)C(=O)N2O (centres undefined)	/	1	4.0	0.73	/	/	/	/	/
CCCCc1c(-c2ccccc2OC)ncn1Cc1ccc(-c2ccccc2)cc1	i	/	1.1	/	-21	-18	18	-6.1	/
CCCNC(=O)C[C@@H]1CC[C@H]2[C@H](COc3ccc(NC(=O)Cc4ccccc4)cc3C(=O)N2C)O1	i	/	/	/	-5	-1	-1.2	0.3	/
C[C@H]1CN([C@@H](C)CO)C(=O)CCCn2cc(nn2)CO[C@@H]1CN(C)S(=O)(=O)c1ccc(Oc2ccccc2)nc1	i	/	0.4	/	5&-1	-9&2	1.3&0.0	0.0&-0.4	/
CNC(=O)c1cc2ncc(C(F)(F)F)cc2s1	i	0	-2.1	0.68	9	4	3.3	0.2	-2%
CCOC(=O)C(=O)C1C(=O)Nc2ccccc21 (centres undefined)	i	-15	-0.8	0.68	5	0	-0.2	-1.6	?
COCCNC(=O)Cn1nc(-c2ccccc2)c2ccccc2c1=O	i	-7	-0.6	/	9	9	-0.3	-16	-9%
Cc1nc2sc3c(c2c(=O)n1N)CCC3	i	5	-1.8	0.65	2	1	-3.4	-2.7	2%
CC1=C(C(=O)OC2CCC(C)CC2)C(c2ccc(O)c([N+](=O)[O-])c2)NC(=O)N1 (centres undefined)	i	7	-2.1	0.67	-18	-19	0.2	-3.3	-1%
CC(C)N1CCN(c2ccncc2S(=O)(=O)N2CCOCC2)CC1	/	-16	-0.8	0.73	/	/	/	/	-2%
CNc1ncn(-c2c(C)cccc2C)c(=O)n1	i	/	/	/	4	12	0.9	-1.4	/
COc1cc2[nH]c(Cl)c([N+](=O)[O-])c2cc1OC	i	-12	-2.6	0.66	17	6	-0.4	-4.5	3.8µM*
CN(C)C(=O)C[C@H]1C=C[C@@H](NC(=O)C2CC2)[C@H](CO)O1	i	/	/	/	3	1	-0.1	-1.0	/
CC(C)Oc1ccc(Cn2c(=O)sc3ccccc32)cc1	/	-2	0.8	0.68	/	/	/	/	2%
O=C(Nc1nc(-c2cccnc2)cs1)c1cccc([N+](=O)[O-])c1	i	12	-0.9	0.7	12	12	-0.8	0.8	-6%
O=C(Nc1ccc(Oc2ccsc2C(=O)O)cc1)c1ccccc1F	i	/	1.4	0.69	11	10	-0.3	-2.4	-14%
Cc1ccccc1Cn1nc(C)c(NC(=O)c2cc3nc(-c4ccco4)cc(C(F)(F)F)n3n2)c1C	/	/	-2.3	0.74	/	/	/	/	9%
CC(C)CNS(=O)(=O)c1ccc(CCC(=O)NCc2ccc(Cl)cc2)cc1	i	-3	-3.2	0.73	11	11	-2.5	-6.4	0%
Cc1ccc(NC(=O)CNC(=O)c2ccc(Oc3ccccc3)cc2)nc1	i	-8	-5.5	0.67	0	-7	-3.0	-0.6	-2%
COc1ccccc1C(=O)N/C(=C/c1ccc2c(c1)OCO2)C(=O)Nc1ccc(C(=O)O)cc1	i	15	-0.1	0.62	-9	-9	-6.3	-7.3	7%
COC(=O)c1ccc(C(NC(=O)OCc2ccccc2)/C(F)=C/[C@@H](C)C(=O)NCc2ccc(OC)c(OC)c2)cc1 (some centres undefined)	i	/	3.3	/	6	8	2.8	-1.1	18%
CN(C)/C=C/C(=O)c1ccncc1	i	-9	5.1	0.64	10	10	1.4	-0.1	/
CCc1cc(C(=O)OC)c(NC(=O)CN2CCN(C(=O)C3CCCO3)CC2)s1 (centres undefined)	i	-6	-0.7	0.7	-5	-19	-0.5	-0.2	/
CC(C)CC(c1nnnn1C1CCCC1)N1CCC(C(N)=O)CC1 (centres undefined)	i	0	2.6	0.66	13	10	1.7	-1.6	/
Additional compounds:
SMILES	FGF22 binding	ALR H2O2 inh	HNF4A DNA FP	Ecoli growth	rRNA inh HTS	rRNA inh HTS OD600	rRNA inh HTS RFP	AF4-AF9 inh	Vif A3G
Cc1ccc(N2C(=O)c3cccc4cccc(c34)C2=O)cc1	/	4	0.0	0.72	7	4	0.3	0.3	-7%
O=C(CCc1ccccc1)Nc1cccc(NC(=O)CCc2ccccc2)c1	i	-2	0.3	0.62	-3	20	1.0	-158	3%
COc1ccccc1NS(=O)(=O)c1ccc(C)c(NC(=O)c2ccc(S(=O)(=O)N3CCCCCC3)cc2)c1	i	-5	-3.4	/	2	2	2.2	0.0	/
CCOC(=O)[C@@H]1[C@H]2COc3ccccc3[C@@H]2N2C(=O)N(c3cccc(C)c3)C(=O)[C@@]12C	/	-4	-5.7	0.8	7	1	-3.6	0.0	/
Nc1nc(NCCCN2CCOCC2)nc(NCc2ccccc2)c1[N+](=O)[O-]	i	1	-0.5	0.62	-13	-12	1.1	/	/
CC1NC(=O)NC1CCCCC(=O)O (centres undefined)	/	-5	-1.1	0.72	/	/	/	/	4%
CCOC(=O)c1c(CS(=O)(=O)c2ccccc2)n(C)c2cc(Br)c(O)cc12	i	26	0.1	0.68	-19*	-2.4*	3.0*	-0.5	/
O=C(C[C@H]1CC[C@H](NC(=O)Nc2cc(F)ccc2F)[C@@H](CO)O1)NCc1ccccn1	i	/	/	/	-1	-1	11	0.7	/
CCC(=O)N1CC2(C1)CN(C(=O)CC)[C@H](CO)c1[nH]c3cc(OC)ccc3c12	i	/	/	/	7	10	0.0	-0.6	/
O=C(NC(=S)Nc1ccccc1N1CCOCC1)c1ccc(-c2ccccc2F)o1	i	-17	-0.7	0.68	4	9	5.1	/	-5%
Cc1ccc(S(=O)(=O)N2CCN(C(C)C(=O)N3CCCc4ccccc43)CC2)cc1 (centres undefined)	/	-2	-0.4	0.69	/	/	/	/	2%
Cc1cc(OCC(=O)Nc2ccc(CCO)cc2)c2c(C)c(C)c(=O)oc2c1	i	5	4.9	0.69	17	25	-0.2	-1.1	/

Some of the compounds tested (hit frequency here may not be typical).
